GIV Gai3 FP: inhibitors of GIV peptide binding to Galpha-i3, primary screen, biochemical, fluorescence polarization, FITC-GIV GBA peptide, rat Galphai3. 90 min; active compounds read low; scaled: aluminum fluoride 0%, vehicle 100%. 0.42% of 210,000 active. percent of control (FP), % (test concentration not listed);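 active = replicate mean at 85% of control or lower, very high polarization wells dropped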;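 also: lower values mean more displacement of the GIV peptide from Galpha-i3; wells of about 15 µL received 100 nL stock; the first replicate is given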
Target sequence (P08753 whole entry, looked up): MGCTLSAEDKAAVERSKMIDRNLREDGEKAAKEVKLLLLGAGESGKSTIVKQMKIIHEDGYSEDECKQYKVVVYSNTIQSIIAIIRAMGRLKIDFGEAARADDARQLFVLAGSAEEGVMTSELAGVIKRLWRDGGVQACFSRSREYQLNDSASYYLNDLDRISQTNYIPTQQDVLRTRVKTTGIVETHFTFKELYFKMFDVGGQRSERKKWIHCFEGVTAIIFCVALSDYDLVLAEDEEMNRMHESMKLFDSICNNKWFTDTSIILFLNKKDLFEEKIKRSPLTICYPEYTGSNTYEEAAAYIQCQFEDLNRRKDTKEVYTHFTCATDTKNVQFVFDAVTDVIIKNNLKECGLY
Sa growth 42C: S. aureus growth inhibition at 42 and 30 °C, primary screen, LtaS inhibitor project, RN4220, two temperatures; 0.53% of 170,000 active; relative growth, % (no concentration beside the values); OD600, 20 h, 42 °C; active compounds read low;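 active = growth at 42 °C up to 50% and 20 or more points under that at 30 °C, or under 10% at both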;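 also: 300 nL library stock went into each well; scaled to the means of positive and negative controls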
HCMV UL50-53 inh: inhibitors of HCMV UL50-UL53 interaction, biochemical, HTRF; HCMV UL50-UL53 nuclear egress complex (human cytomegalovirus); normalized percent inhibition; inhibition, % (concentration not given with the values); AID 1918969, 2023; 0.15% of 190,000 active;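 active = both replicates at 50% or more, plus weaker picks with an unusually low signal ratio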;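 also: stock transfer was 100 nL into about 20 µL; 0% = negative control wells and 100% = wells with untagged competitor protein; inactives centre near -12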
Sa growth 42C second temp: recorded beside Sa growth 42C, whose call it bears; relative growth, %; measured here: growth at 30 °C;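 optical density after 20 h as mean of two plates; 100% = untreated growth and lower means inhibition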
* = called active by the depositor; / = no result given; & = joins results of further samples.

SMILES | GIV Gai3 FP | Sa growth 42C | Sa growth 42C second temp | HCMV UL50-53 inh
CCOc1ccc(NC(=O)C(C)NS(=O)(=O)c2ccc(C)cc2)cc1 (stereo unspecified) | 101 | 103 | 95 | -11
Cc1cc(N2CCCC2)ccc1NC(=O)COc1ccc(Cl)cc1 | / | 104 | 97 | 7
CCc1ccccc1N(C)C(=O)c1noc2c1CCCC2 | 96 | 95 | 92 | -31
COc1cccc(C(=O)Nc2ccc(C)cc2)c1 | / | 88 | 101 | 20
O=C1CCCc2cc(S(=O)(=O)N3CCCC3C(=O)NCCc3ccc(Cl)cc3)ccc2N1 (stereo unspecified) | 108 | / | / | -22
O=C(CN1C(=O)COc2ccc(S(=O)(=O)N3CCCCC3)cc21)NCc1ccc(Cl)cc1 | 102 | 85 | 55 | /
Cc1ccc(CSCc2ccc(C(=O)NCCc3ccc(Cl)cc3)o2)cc1 | 95 | 76 | 75 | /
O=C(CCCCCn1c(=O)c2sccc2n(Cc2ccc(Cl)cc2)c1=O)NCc1ccc2c(c1)OCO2 | 106 | 106 | 94 | -2
CCOc1ccc(NC(=O)CC2C(=O)N(c3ccc(C)cc3)C(=O)N2CCC2=CCCCC2)cc1 (stereo unspecified) | 100 | 110 | 91 | -6
Cc1ccc(S(=O)(=O)Nc2ncccc2OCc2cc(F)cc(F)c2)cc1 | 101 | 111 | 94 | -1
CCOC(=O)c1c(C)[nH]c(C)c1S(=O)(=O)NCCc1ccccc1 | 99 | 100 | 94 | -20
CCc1ccc(OC(C)C(=O)Nc2nonc2-c2ccc(C)c(C)c2)cc1 (stereo unspecified) | 101 | / | / | 4
N#Cc1ccccc1CSc1nc2ncc(Br)cc2[nH]1 | 103 | 91 | 83 | -13
Cc1nn(-c2ccc(F)cc2)c(-n2cccc2)c1C(=O)NCCc1cccs1 | 109 | 87 | 79 | -15
CC1=CC(C)(C)N(C(=O)CSc2nnc(-c3ccc(C)cc3)o2)c2ccc(C)cc21 | 107 | / | / | -13
Cc1ccc(OCCSc2nc(N)cc(N)n2)c(C(C)C)c1 | / | 80 | 72 | 5
CCN(CC)C(=O)c1cc2c(s1)-c1ccccc1S(=O)(=O)C2 | 105 | 113 | 106 | -13
CCOC(=O)c1c(NC(=O)C(F)(F)F)n[nH]c1N | / | 101 | 101 | 9
Cc1c(CCNC(=O)c2ccc(C(C)(C)C)cc2)sc2nc(-c3ccc(F)cc3)nn12 | 102&102 | 100 | 95 | /
N#C/C(=C/c1cccs1)C(N)=S | 110 | 97 | 63 | -104
CCN1C(=O)CS/C1=C(\C#N)S(=O)(=O)c1ccccc1 | 227 | 89 | 78 | /
CCN(Cc1ccccc1)C(=O)c1ccc(S(=O)(=O)N(C)C)cc1 | / | 70 | 97 | -17
Cc1cc(NCc2ccccn2)n2ncc(-c3ccccc3)c2n1 | 105 | / | / | -19
Cc1oc(C(=O)O)cc1COc1ccc2c3c(c(=O)oc2c1)CCCC3 | 98 | 105 | 94 | /
Cc1nn(CC(=O)c2ccc3c(c2)OCCO3)c(=O)c(C#N)c1C | / | 73 | 96 | -92
COc1cc(C=C(C#N)C#N)ccc1OC(=O)c1ccco1 | 99 | 104 | 82 | -15
Cc1c(Cl)cccc1Nc1nc2ccc(C(=O)c3ccccc3)cc2n2cnnc12 | 107 | 120 | 89 | /
O=C(Nc1ccc(N2C(=O)C3C4C=CC(C4)C3C2=O)cc1)Nc1ccccn1 (stereo unspecified) | 106 | 105 | 84 | -19
c1ccc(CSc2nnc(-c3ccccc3)n2Cc2ccco2)cc1 | / | 98 | 98 | 8
CCc1ccccc1N1CC(c2nc3ccccc3n2CCCCOc2ccccc2)CC1=O (stereo unspecified) | 108 | 102 | 42 | 75*
COc1cc2ccccc2cc1C(N)=O | / | 98 | 90 | -64
CCOC(=O)c1cc(C)[nH]c(=O)n1 | 109 | 109 | 101 | -25
CCN(Cc1ccncc1)Cn1nc(-c2ccncc2)n(CCOC)c1=S | / | 89 | 91 | -21
CN(c1ccc(C(=O)NC2CCCCC2)cc1)S(C)(=O)=O | 97 | 111 | 96 | -11
CCOc1cc(-c2noc(CCCC(=O)Nc3cccnc3)n2)ccc1OC | 100 | / | / | -3
CN(C)c1ccc(C(=O)N2CCN(c3ccccc3)CC2)cc1 | 102 | 126 | 105 | -11
CCOc1ccc(NC(=O)c2cc(S(=O)(=O)N3CCOCC3)ccc2F)cc1 | 104 | 132 | 87 | /
Cc1ccccc1Nc1c(-c2c[nH]c3ccccc23)nc2cccc(C)n12 | 108 | 105 | 108 | 2
CCC(Sc1nc2ncnc(N)c2[nH]1)C(=O)O (stereo unspecified) | 107 | 99 | 91 | -8
COc1ccc(C)cc1S(=O)(=O)NCC(c1ccc(N(C)C)cc1)N1CCc2ccccc21 (stereo unspecified) | 98 | 98 | 92 | /

15 entries from above, with values under each structure:
Order of values – GIV Gai3 FP | Sa growth 42C | Sa growth 42C second temp | HCMV UL50-53 inh
COc1cc(C=C(C#N)C#N)ccc1OC(=O)c1ccco1
→ 99 | 104 | 82 | -15
Cc1c(Cl)cccc1Nc1nc2ccc(C(=O)c3ccccc3)cc2n2cnnc12
→ 107 | 120 | 89 | /
O=C(Nc1ccc(N2C(=O)C3C4C=CC(C4)C3C2=O)cc1)Nc1ccccn1 (stereo unspecified)
→ 106 | 105 | 84 | -19
c1ccc(CSc2nnc(-c3ccccc3)n2Cc2ccco2)cc1
→ / | 98 | 98 | 8
CCc1ccccc1N1CC(c2nc3ccccc3n2CCCCOc2ccccc2)CC1=O (stereo unspecified)
→ 108 | 102 | 42 | 75*
COc1cc2ccccc2cc1C(N)=O
→ / | 98 | 90 | -64
CCOC(=O)c1cc(C)[nH]c(=O)n1
→ 109 | 109 | 101 | -25
CCN(Cc1ccncc1)Cn1nc(-c2ccncc2)n(CCOC)c1=S
→ / | 89 | 91 | -21
CN(c1ccc(C(=O)NC2CCCCC2)cc1)S(C)(=O)=O
→ 97 | 111 | 96 | -11
CCOc1cc(-c2noc(CCCC(=O)Nc3cccnc3)n2)ccc1OC
→ 100 | / | / | -3
CN(C)c1ccc(C(=O)N2CCN(c3ccccc3)CC2)cc1
→ 102 | 126 | 105 | -11
CCOc1ccc(NC(=O)c2cc(S(=O)(=O)N3CCOCC3)ccc2F)cc1
→ 104 | 132 | 87 | /
Cc1ccccc1Nc1c(-c2c[nH]c3ccccc23)nc2cccc(C)n12
→ 108 | 105 | 108 | 2
CCC(Sc1nc2ncnc(N)c2[nH]1)C(=O)O (stereo unspecified)
→ 107 | 99 | 91 | -8
COc1ccc(C)cc1S(=O)(=O)NCC(c1ccc(N(C)C)cc1)N1CCc2ccccc21 (stereo unspecified)
→ 98 | 98 | 92 | /

Next records follow.
mol | GIV Gai3 FP | Sa growth 42C | Sa growth 42C second temp | HCMV UL50-53 inh
CN(C)CCNC(=O)c1ccc2c(c1)N(Cc1ccccc1)C(=O)CS2 | 101 | 94 | 87 | /
Cc1ccccc1Nc1c2c(nc3nncn13)CCC2 | 102 | 104 | 86 | -13
CC1(C(=O)Nc2cccc(C(F)(F)F)c2)Cc2ccccc2C(=O)O1 (stereo unspecified) | 107 | 113 | 83 | -6
Cc1cc(C)c2nc(N(Cc3cccnc3)C(=O)c3cccs3)sc2c1 | 100 | 107 | 84 | /
O=C(Nc1nc(-c2ccc(I)cc2)cs1)c1sc2ccccc2c1Cl | 102 | / | / | -20
Cc1ccc(/C=C/C(=O)Oc2ccc(-c3ccc(C#N)cc3)cc2)o1 | / | 75 | 91 | -2
O=C(NCc1ccco1)c1cccc2c1C(=O)N(Cc1cccnc1)C2 | 100 | 105 | 77 | /
COC(=O)c1cc(C(=O)OC)cc(N2C(=O)c3c(C)nc4ccccc4c3C2=O)c1 | 104 | / | / | -4
O=C(O)CCc1ccc(-c2ccccc2)n1-c1ccc(C(=O)O)cc1 | 108&102 | 109 | 105 | -1&5
COc1ccc(C2C3=C(CC(C)(C)CC3=O)Nc3nc(SCCN4CCOCC4)[nH]c(=O)c32)cc1OC (stereo unspecified) | 101 | 74 | 96 | -4
CC1=C(C(=O)Nc2ccccc2)C(c2ccc(Cl)cc2)n2nnnc2N1 (stereo unspecified) | 104 | / | / | -4
CC1CN(C(=O)CCC(=O)N2CCC(C(N)=O)CC2)c2ccccc2O1 (stereo unspecified) | 100 | 95 | 84 | /
O=C1c2ccccc2C(=O)N1CCSc1ncnc2sc3c(c12)CCCC3 | 101 | / | / | -20
CCOC(=O)CCN1N=C(c2ccc(CC)cc2)CCC1=O | 105 | 100 | 93 | /
Cc1cc(S(N)(=O)=O)ccc1OCC(=O)O | 100 | 106 | 76 | -24
CCc1nnc(NC(=O)c2cc(=O)c3cc(Br)ccc3o2)s1 | 100 | / | / | -19
COc1cccc(C(=O)Nc2ccccc2-c2nc(-c3cccc(C)c3)no2)c1 | 107 | / | / | -23
CCOc1ccccc1NC(=O)c1ccc(OCC(=O)N2CCOCC2)c(OC)c1 | / | 92 | 93 | 11
Cc1nn(C)c(C)c1CNS(=O)(=O)Cc1ccccc1 | 102 | / | / | -18
O=C(N/N=C/c1cccc(C(F)(F)F)c1)c1ccccn1 | / | 92 | 86 | -30
COC(=O)c1ccccc1NC(=O)CCc1c(C)nc2cc(-c3ccc(Cl)cc3)nn2c1C | 103 | 106 | 90 | -4
C(=NN1CCN(C2c3ccccc3-c3ccccc32)CC1)c1ccncc1 | 97 | 135 | 100 | -13
COC(=O)c1sccc1NS(=O)(=O)c1ccc(F)cc1F | 102 | 102 | 101 | 19
Cc1cccc(C)c1NC(=O)C1(N(Cc2ccco2)C(=O)Cc2nc(N)n[nH]2)CCCCC1 | / | 67 | 84 | -24
Cc1cccc(N2C(=O)c3nccnc3C2=O)c1C | 95 | / | / | -18
Nn1c(CO)nc2ccccc21 | / | 97 | 95 | -3
N=c1oc2cc(O)ccc2cc1C(=O)Nc1cccc(C(F)(F)F)c1 | / | 74 | 67 | -37
O=C(NCCc1ccc(Cl)cc1)c1ccc(-n2nc(OCc3ccc(Cl)cc3)ccc2=O)cc1 | 104 | / | / | -33
CCOc1ccc(CCNC(=O)c2sc3nc4n(c(=O)c3c2C)CCCC4)cc1OCC | 104 | 101 | 94 | -1
Cc1ccc2ncc(-c3ccc4c(N)c(C)ccc4n3)cc2c1 | / | 90 | 81 | -40
COc1cccc(C2(c3ccc(O)cc3)CCCC2)c1 | 96 | 33 | 26 | /
C#CCn1c(C2CC(=O)N(c3ccccc3Br)C2)nc2ccccc21 (stereo unspecified) | 106 | 75 | 70 | 1
CCOC(=O)c1cnc2ccc(Cl)cc2c1Nc1ccc(S(=O)(=O)Nc2ncccn2)cc1 | 102 | 100 | 83 | /
CC1CCN(S(=O)(=O)N2CCCC(C(=O)NCCCN3CCN(Cc4ccccc4)CC3)C2)CC1 (stereo unspecified) | 99 | 99 | 85 | -20
CCCc1cc(=O)n2c(-c3ccc(Cl)cc3)csc2n1 | 106 | 95 | 90 | -16
COc1ccccc1-c1cc(C(F)(F)F)nc(S(=O)(=O)CCCC(=O)Nc2ccccc2F)n1 | 103 | 97 | 78 | -23
Cn1c(SCc2nc(-c3ccncc3)no2)nc2ccsc2c1=O | 102 | / | / | -12
CCOC(=O)C(Cc1c[nH]c2ccccc12)NC(=O)COc1ccc(Cl)c(C)c1 (stereo unspecified) | 102 | 102 | 85 | -39
NC(=S)NN1C2CSC1CS2 | 105 | 99 | 85 | -6
O=C1CCS(=O)(=O)N1c1ccc(S(=O)(=O)NCC2CCCO2)cc1 (stereo unspecified) | 103 | / | / | -42
CCOC(=O)Cn1c(-c2cccs2)cc2cc(Cl)ccc21 | 106 | 91 | 84 | -41
CCOc1ccccc1Nc1nc(N)nc(CN(C)C2CCCCC2)n1 | 108 | 113 | 87 | -5
O=C(Nc1cc(-c2nc3ccccc3o2)ccc1Cl)c1cccc2c(Cl)cccc12 | 107 | 98 | 91 | -9
Cn1ccnc1CSc1ncccc1C(=O)O | / | 113 | 89 | 8
COC(OC)c1nc(SCc2ccc(Cl)cc2)ncc1C(=O)O | 111 | 108 | 73 | 1
CCOC(=O)/C=C/c1ccc(-c2ccc(F)cc2)o1 | / | 98 | 73 | -36
CCOC(=O)c1c(-c2ccc(C)cc2)csc1/N=C/c1c(C)[nH]n(-c2ccccc2)c1=O | 105 | / | / | -11
c1ccc(CCSc2nnc(-c3cccs3)o2)cc1 | 97 | 104 | 89 | 9

Assay outcomes deposited in PubChem by ICCB-Longwood Screening Facility, Harvard Medical School.
